Vaccinia stage: Vaccinia orthopox stage-specific inhibition. Vaccinia-infected cells, mCherry/Venus stage reporter fluorescence; stronger effect = lower value; some inactives read as strong as hits. hit rate 0.01% among 89,000. activity change (mCherry), % (test concentration not listed). AID 1053133;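 active = mCherry past -33% and 40 or more points under the early reporter, replicates agreeing; inconclusive = past -33% without that gap or agreement; tested in A549 cells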;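 note: scaled between vehicle wells and reference inhibitor wells; 23 nL library stock went into each well; one replicate is shown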
Vaccinia stage Venus: recorded beside Vaccinia stage, whose call it bears; activity change (Venus), %; measured here: Venus reporter, other viral stage;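 negative = less Venus signal; first of two replicates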
* marks the source's active call; other numbers are inactive results; u = inconclusive; x = not tested or not shown. Some of the compounds tested; rates above refer to the full screens.

canonical_smiles	Vaccinia stage	Vaccinia stage Venus
C[C@@H]1CN([C@@H](C)CO)C(=O)c2cccc(NC(=O)c3ccc(-c4nccs4)cc3)c2O[C@H]1CN(C)Cc1ccncc1	-15	-11
COc1ccc2c3c([nH]c2c1)[C@H](CO)N(C(=O)C1CC1)CC31CCN(S(C)(=O)=O)CC1	17	5
CC(C)CC#Cc1ccc2c(c1)O[C@H](CN(C)Cc1ccc3c(c1)OCO3)[C@H](C)CN([C@@H](C)CO)S2(=O)=O	u	x
OC[C@@H]1[C@@H](c2ccc(Br)cc2)[C@H]2CN(Cc3cncnc3)CCCCN12	22	2
C[C@@H]1CCCCO[C@@H](CN(C)CC2CCCCC2)[C@@H](C)CN([C@@H](C)CO)C(=O)c2cc(NC(=O)Nc3ccc(C(F)(F)F)cc3)ccc2O1	-6	-5
COc1ccc(C#Cc2ccc([C@H]3[C@H](CO)N4C(=O)CN(C(C)=O)C[C@@H]34)cc2)cc1	3	-2
CNC(=O)C1=C[C@H](c2ccc(C(=O)OC)cc2)C[C@H](OCc2ccc(CO)cc2)O1	2	1
CO[C@H]1CN(C)C(=O)c2ccc(NC(=O)c3cccc(F)c3)cc2OC[C@@H](C)NC[C@H]1C	2	-4
COc1ccc(-c2cnc3c(c2)C(=O)N([C@H](C)CO)C[C@@H](C)[C@@H](CN(C)C(=O)C2CCOCC2)O3)cc1	13	4
COCC#Cc1cnc2c(c1)C(=O)N([C@@H](C)CO)C[C@H](C)[C@H](CN(C)Cc1ccccc1F)O2	26	13
CC(C)(O)C#Cc1ccc([C@H]2[C@H]3CN(C(=O)c4cccnc4)CCCCN3[C@H]2CO)cc1	38	24
CO[C@@H]1CN(C)C(=O)c2cc(NS(=O)(=O)c3ccc(F)cc3)ccc2OC[C@H](C)NC[C@H]1C	0	8
COc1ccc(S(=O)(=O)N[C@@H]2CC[C@@H](CC(=O)N3CCC(Cc4ccccc4)CC3)O[C@@H]2CO)cc1	-19	-13
COc1ccc(-c2ccc3n(c2=O)C[C@@H]2[C@@H](CO)[C@H](C(=O)N(C)C)N(CC4CC4)[C@H]32)cc1	11	7
O=S(=O)(c1cccc2cccnc12)N1CCN(Cc2ccc(OCCO)cc2)CC1	-7	-3
CCCN(C)C[C@H]1Oc2cc(-c3ccc(F)cc3)ccc2S(=O)(=O)N([C@H](C)CO)C[C@H]1C	-27	-13
CO[C@H]1CN(C)C(=O)c2ccc(NC(C)=O)cc2OC[C@H](C)N(C(=O)c2cnccn2)C[C@@H]1C	-1	10
CO[C@H](C(=O)N(C)C[C@H]1OCc2ccccc2-c2c(n(C)c3ccccc23)C(=O)N([C@H](C)CO)C[C@@H]1C)c1ccccc1	-17	-20
COc1ccc(CN(C)C[C@@H]2OCCCC[C@H](C)Oc3ccc(NC(=O)CCCN(C)C)cc3C(=O)N([C@@H](C)CO)C[C@H]2C)cc1	24	5
COc1ccc(S(=O)(=O)N(C)C[C@@H]2OCCCC[C@@H](C)Oc3ccc(NC(=O)Nc4cccc5ccccc45)cc3C(=O)N([C@@H](C)CO)C[C@@H]2C)cc1	13	10
C[C@H]1CN([C@@H](C)CO)C(=O)c2ccccc2-c2ccccc2CO[C@H]1CN(C)Cc1ccccc1	-17	-17
C[C@H](O)C#Cc1ccc2c(c1)O[C@H](CN(C)Cc1ccc(-c3ccccc3)cc1)[C@H](C)CN([C@@H](C)CO)S2(=O)=O	u	x
O=C(c1ccccc1F)N1CC2(C1)[C@@H](c1ccccc1)[C@@H](CO)N2CC1CCCC1	u	x
CC(C)NC(=O)N(C)C[C@@H]1Oc2ccc(NC(=O)CCC(F)(F)F)cc2C(=O)N([C@H](C)CO)C[C@@H]1C	9	0
Cc1noc(C)c1NC(=O)Nc1ccc2c(c1)C(=O)N([C@H](C)CO)C[C@@H](C)[C@@H](CN(C)CC1CCCCC1)O2	16	10

Further results
canonical_smiles	Vaccinia stage	Vaccinia stage Venus
CCCC#Cc1ccc2c(c1)[C@H]1[C@H](CCN1S(=O)(=O)c1cn(C)cn1)[C@H](CO)N2	-5	9
CCCNC(=O)N1CC2(C1)CN(C(=O)COC)[C@@H](CO)c1[nH]c3cc(OC)ccc3c12	2	-7
CN1CCN(C(=O)C[C@H]2CC[C@H](NC(=O)Cc3ccccn3)[C@H](CO)O2)CC1	-4	2
COCC#Cc1cnc2c(c1)C(=O)N([C@H](C)CO)C[C@@H](C)[C@@H](CN(C)C(=O)c1cnccn1)O2	14	10
O=C(C[C@H]1CC[C@@H](NC(=O)NC2CCCCC2)[C@H](CO)O1)NCc1ccc(Cl)cc1	-1	0
O=S(=O)(N[C@@H]1CC[C@@H](CCn2cc(C3(O)CCCC3)nn2)O[C@@H]1CO)c1ccc(F)cc1	5	-7
COc1ccc(C(=O)Nc2ccc3c(c2)OC[C@H](C)NC[C@H](C)[C@@H](OC)CN(C)C3=O)cc1	-1	1
O=C(C[C@H]1CC[C@H](NC(=O)C2CCOCC2)[C@H](CO)O1)Nc1ccccc1	12	10
C[C@@H]1CN([C@H](C)CO)C(=O)Cc2cc(N(C)C)ccc2O[C@H]1CN(C)CC1CC1	8	4
C[C@H](CO)N1C[C@H](C)[C@@H](CN(C)Cc2ccncc2)Oc2ccc(NS(C)(=O)=O)cc2CC1=O	10	5
CC(C)NC(=O)Nc1ccc2c(c1)CC(=O)N([C@H](C)CO)C[C@@H](C)[C@@H](CN(C)C(=O)Nc1ccc(C(F)(F)F)cc1)O2	17	13
CC(C)NC(=O)Nc1ccc2c(c1)C(=O)N([C@H](C)CO)C[C@H](C)[C@H](CN(C)Cc1ccc(C(F)(F)F)cc1)OCCCC[C@H](C)O2	u	x
C[C@@H]1CCCCO[C@@H](CN(C)Cc2ccncc2)[C@@H](C)CN([C@H](C)CO)C(=O)c2cc(NC(=O)Nc3ccc4c(c3)OCO4)ccc2O1	7	0
C[C@@H]1CN([C@@H](C)CO)C(=O)c2cc(N(C)C)ccc2O[C@@H](C)CCCCO[C@@H]1CN(C)C(=O)NC1CCCCC1	-13	-12
C[C@@H]1CCCCO[C@@H](CN(C)S(=O)(=O)c2ccc(F)cc2)[C@H](C)CN([C@@H](C)CO)C(=O)c2cc(NS(C)(=O)=O)ccc2O1	8	5
CNC[C@@H]1OCCCC[C@H](C)Oc2ccc(NC(=O)c3ccncc3)cc2C(=O)N([C@H](C)CO)C[C@@H]1C	17	10
CCC(=O)N1[C@@H]2c3ccc(-c4ccc(F)cc4)c(=O)n3C[C@@H]2[C@@H](CO)[C@@H]1C(=O)NC1CCC1	-6	3
COc1ccc(NC(=O)N(C)C[C@H]2Oc3ccc(NC(=O)Cc4cn(C)c5ccccc45)cc3C(=O)N([C@H](C)CO)C[C@H]2C)cc1	0	13
COCCNC(=O)C[C@H]1CC[C@H](NS(=O)(=O)c2ccc(C)cc2)[C@@H](CO)O1	1	-4
C[C@H]1CN([C@@H](C)CO)C(=O)c2cc(NC(=O)CCCCCC(=O)Nc3ccccc3N)ccc2O[C@@H]1CN(C)Cc1ccc2c(c1)OCO2	4	2
CCCC#Cc1ccc2c(c1)O[C@H](CN(C)CC1CCOCC1)[C@H](C)CN([C@H](C)CO)S2(=O)=O	-14	-19
COc1cccc(C(=O)Nc2ccc3c(c2)OC[C@@H](C)NC[C@H](C)[C@H](OC)CN(C)C3=O)c1	-14	-10
C[C@H](CO)N1C[C@H](C)[C@H](CN(C)Cc2ccc(Oc3ccccc3)cc2)Oc2c(NC(=O)NC3CCCCC3)cccc2C1=O	u	x
COC(=O)[C@@H]1[C@@H](CO)[C@@H]2Cn3c(cccc3=O)[C@@H]2N1C(=O)C1CCCC1	18	12
C[C@H](CO)N1C[C@H](C)[C@H](CN(C)C(=O)Nc2ccccc2)Oc2ccc(NC(=O)Nc3cccc4ccccc34)cc2C1=O	4	6

(more compounds)
compound | Vaccinia stage | Vaccinia stage Venus
C[C@H](CO)N1C[C@H](C)[C@H](CN(C)S(C)(=O)=O)Oc2c(cccc2N(C)C)C1=O | 0 | -3
O=C(C[C@@H]1CC[C@@H](NC(=O)c2cccc(F)c2)[C@@H](CO)O1)NCCN1CCCC1 | 1 | 3
COc1ccc2c3c([nH]c2c1)[C@H](CO)N(Cc1ccc(F)cc1)CC31CCN(Cc2ccccn2)CC1 | -1 | 4
CCC(=O)N1[C@H](CO)[C@@H]2c3ccccc3N(S(=O)(=O)c3ccccc3C)C[C@@H]21 | -5 | -6
O=C(NC1CCCCC1)N1CC(=O)N2[C@H](C1)[C@H](c1ccc(-c3ccncc3)cc1)[C@@H]2CO | 10 | 10
C[C@@H]1CN([C@@H](C)CO)C(=O)c2cc(-c3ccc(F)cc3)cnc2O[C@@H]1CN(C)C(=O)c1ccccn1 | 5 | 1
COc1ccc(-c2ccc([C@@H]3[C@@H](C#N)N(C(=O)C4CCC4)[C@H]3CO)cc2)cc1 | -17 | -12
CN1[C@H](C(=O)NCCc2ccccc2)[C@@H](CO)[C@@H]2Cn3c(ccc(-c4ccncc4)c3=O)[C@@H]21 | 14 | 13
CCCC#Cc1ccc2c(c1)O[C@@H](CN(C)C(=O)Nc1ccc(OC)cc1)[C@H](C)CN([C@H](C)CO)S2(=O)=O | -22 | -13
C[C@@H]1CN([C@H](C)CO)C(=O)CCCn2cc(nn2)CO[C@H]1CN(C)Cc1ccc(Oc2ccccc2)cc1 | -6 | -4
CNC[C@H]1Oc2c(NC(=O)Nc3cccc4ccccc34)cccc2C(=O)N([C@H](C)CO)C[C@H]1C | -3 | 6
C[C@H](CO)N1C[C@H](C)[C@@H](CN(C)C(=O)c2ccccc2F)Oc2ncc(C#CC(C)(C)O)cc2C1=O | -10 | -7
CO[C@@H]1CN(C)C(=O)c2ccc(NC(=O)C3CC3)cc2OC[C@@H](C)N(Cc2ccncc2)C[C@@H]1C | 16 | 16
CO[C@@H](C(=O)N(C)C[C@@H]1OCc2ccccc2-c2ccccc2C(=O)N([C@H](C)CO)C[C@H]1C)c1ccccc1 | 7 | 9
O=C(Nc1ccccc1F)N[C@H]1CC[C@@H](CC(=O)N2CCCCC2)O[C@H]1CO | 6 | 4
CCC(=O)N[C@@H]1C=C[C@H](CC(=O)NCCN2CCCCC2)O[C@H]1CO | 6 | 5
O=C(C[C@@H]1CC[C@H](NC(=O)c2cccc(F)c2)[C@H](CO)O1)Nc1nccs1 | 0 | 3
O=S(=O)(N[C@H]1CC[C@@H](CCn2cc(-c3cccnc3)nn2)O[C@H]1CO)c1ccc(F)cc1 | 11 | 11
C[C@@H]1CN([C@H](C)CO)S(=O)(=O)c2ccc(-c3ccncc3)cc2O[C@H]1CN(C)C(=O)Nc1ccc(F)cc1 | 16 | 7
CO[C@H]1CN(C)C(=O)c2ccc(NC(=O)C3CC3)cc2OC[C@H](C)N(CCc2ccccc2)C[C@H]1C | 1 | -8

Entries of single compounds, quoted from the list.
CCC(=O)N[C@@H]1C=C[C@H](CC(=O)NCCN2CCCCC2)O[C@H]1CO is listed as Vaccinia stage = 6; Vaccinia stage Venus = 5
C[C@@H]1CN([C@@H](C)CO)C(=O)c2cc(-c3ccc(F)cc3)cnc2O[C@@H]1CN(C)C(=O)c1ccccn1 is listed as Vaccinia stage = 5; Vaccinia stage Venus = 1

Next part:
compound | Vaccinia stage | Vaccinia stage Venus
C/C=C/c1ccc([C@@H]2[C@@H](CO)N3CCCCN(C(=O)Cc4cccnc4)C[C@H]23)cc1 | 9 | -1
CCCN1[C@@H]2Cn3c(ccc(-c4ccccc4)c3=O)[C@H]1[C@@H](C(=O)OC)[C@@H]2CO | 7 | 11
N#C[C@H]1[C@@H](c2ccc(C#CC3(O)CCCC3)cc2)[C@@H](CO)N1C(=O)C1CCC1 | 2 | -2
C[C@@H]1CCCCO[C@H](CN(C)C(=O)Cc2ccccc2)[C@H](C)CN([C@H](C)CO)C(=O)c2cc(N(C)C)ccc2O1 | 21 | 10
CCC(=O)N[C@@H]1CC[C@H](CC(=O)OC)O[C@@H]1CO | -4 | -8
Cc1ccc(S(=O)(=O)N(C)C[C@H]2Oc3c(NC(=O)Nc4c(C)noc4C)cccc3C(=O)N([C@@H](C)CO)C[C@H]2C)cc1 | 5 | 6
C[C@@H]1CN([C@H](C)CO)C(=O)c2cc(NS(=O)(=O)c3cn(C)cn3)ccc2O[C@@H]1CN(C)Cc1ccc2c(c1)OCO2 | 0 | 1
CC(=O)N1CC[C@@H]2[C@H]1c1cc(-c3ccc(F)cc3)ccc1N[C@@H]2CO | -23 | -15
COCC(=O)Nc1ccc2c(c1)C(=O)N(C)C[C@H](OC)[C@@H](C)CN(C(=O)CC1CC1)[C@@H](C)CO2 | 1 | 11
O=C([C@@H]1[C@@H](CO)[C@@H]2Cn3c(ccc(C4=CCCCC4)c3=O)[C@@H]2N1Cc1nccs1)N1CCOCC1 | 9 | 9
CCCC#Cc1cnc2c(c1)C(=O)N([C@H](C)CO)C[C@@H](C)[C@@H](CN(C)C(=O)Cc1ccccc1)O2 | -2 | 2
O=C(NCC[C@H]1CC[C@@H](NS(=O)(=O)c2cccc(F)c2)[C@H](CO)O1)C1CCOCC1 | 17 | 5
Cc1ccc(S(=O)(=O)N[C@@H]2CC[C@@H](CCNS(=O)(=O)Cc3ccccc3)O[C@H]2CO)cc1 | -6 | 6

5 compounds picked at random from the list so far, as already listed:
compound | Vaccinia stage | Vaccinia stage Venus
O=C(NCC[C@H]1CC[C@@H](NS(=O)(=O)c2cccc(F)c2)[C@H](CO)O1)C1CCOCC1 | 17 | 5
C/C=C/c1ccc([C@@H]2[C@@H](CO)N3CCCCN(C(=O)Cc4cccnc4)C[C@H]23)cc1 | 9 | -1
CCCC#Cc1cnc2c(c1)C(=O)N([C@H](C)CO)C[C@@H](C)[C@@H](CN(C)C(=O)Cc1ccccc1)O2 | -2 | 2
Cc1ccc(S(=O)(=O)N(C)C[C@H]2Oc3c(NC(=O)Nc4c(C)noc4C)cccc3C(=O)N([C@@H](C)CO)C[C@H]2C)cc1 | 5 | 6
C[C@@H]1CCCCO[C@H](CN(C)C(=O)Cc2ccccc2)[C@H](C)CN([C@H](C)CO)C(=O)c2cc(N(C)C)ccc2O1 | 21 | 10
